Source: PubChem (ICCB-Longwood Screening Facility, Harvard Medical School)
MenB inh: blocks the Mycobacterium tuberculosis MenB enzyme; P9WNP5; MenB enzyme assay, absorbance read-out; some hits fall short of the stated cut; inhibition, %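 (about 12 µg/mL by stock and volumes)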; actives 0.43% (n = 100,000); AID 540299;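 active = mean of two replicates above 30%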;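 note: 0% = no compound and 100% = wells with inactive enzyme; the first replicate is given; strong numbers were not always called active; inactives centre near -10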
MbtI inh: MbtI salicylate synthase inhibition; P9WFX0; purified MbtI enzyme, fluorescence intensity read-out; inhibition, %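 (about 17 µg/mL by stock and volumes)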; actives 0.89% (n = 100,000);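 active = above 50% in both replicates, above 80% if mildly self-fluorescent; inactive = the rest, strongly fluorescent compounds included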;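 note: 0% = mean of negative and 100% = mean of positive controls; one replicate is shown; some compounds called inactive have numbers as strong as hits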
Target sequence (P9WFX0 whole entry, looked up): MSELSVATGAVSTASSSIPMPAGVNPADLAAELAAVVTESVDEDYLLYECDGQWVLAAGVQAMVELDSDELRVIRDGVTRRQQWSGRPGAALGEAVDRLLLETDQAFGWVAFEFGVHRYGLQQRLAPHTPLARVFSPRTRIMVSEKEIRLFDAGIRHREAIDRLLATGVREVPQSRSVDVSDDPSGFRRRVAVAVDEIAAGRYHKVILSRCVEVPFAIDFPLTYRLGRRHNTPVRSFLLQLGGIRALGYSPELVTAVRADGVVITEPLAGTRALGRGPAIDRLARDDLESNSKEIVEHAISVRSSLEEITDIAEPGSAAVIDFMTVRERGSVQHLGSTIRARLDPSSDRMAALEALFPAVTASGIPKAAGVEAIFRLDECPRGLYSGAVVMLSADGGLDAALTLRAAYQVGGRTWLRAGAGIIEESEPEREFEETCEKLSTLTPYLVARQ
Polio RdRp inh: inhibitors of poliovirus RNA polymerase binding and polymerization | P03300 | poliovirus polymerase elongation, fluorescence polarization; hits give low values | % elongation, % (compound at 16.7 µg/mL) | actives 0.66% (n = 150,000); in the data active = % elongation below about 90%; note: some results filed as inactive read as strong as hits
Target sequence (P03300 1749-2209 limits assumed): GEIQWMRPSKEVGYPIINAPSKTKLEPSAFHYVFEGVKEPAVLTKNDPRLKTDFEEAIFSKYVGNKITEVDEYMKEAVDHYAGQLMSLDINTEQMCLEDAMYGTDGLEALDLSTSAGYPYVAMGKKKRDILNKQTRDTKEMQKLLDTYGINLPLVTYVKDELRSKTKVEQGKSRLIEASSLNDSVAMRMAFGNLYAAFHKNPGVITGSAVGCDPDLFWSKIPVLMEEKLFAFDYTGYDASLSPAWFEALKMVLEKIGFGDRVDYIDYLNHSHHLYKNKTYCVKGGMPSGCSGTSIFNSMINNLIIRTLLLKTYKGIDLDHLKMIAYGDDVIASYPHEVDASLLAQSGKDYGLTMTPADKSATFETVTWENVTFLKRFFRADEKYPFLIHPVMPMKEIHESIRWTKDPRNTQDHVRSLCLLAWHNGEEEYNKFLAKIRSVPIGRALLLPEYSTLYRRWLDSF
Polio RdRp inh intensity: second read-out of Polio RdRp inh, no call of its own (marks repeat the call); % elongation; measured here: total intensity read-out; formula for this scale not given here;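 total fluorescence in place of polarization; lower means less elongation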
The depositor's hits bear a star; i = inactive; . = no result given; & = joins results of further samples. Rows were taken by chance. About 1.9% of those tested had a hit in this group.

Preview (seven entries):
SMILES	MenB inh	MbtI inh	Polio RdRp inh	Polio RdRp inh intensity
O=c1cc(N2CCCCC2)[nH]c(=O)n1C1CCCCC1	17	6	103	98
O=C(COc1ccc(Cl)cc1)N1CCN=C1SCc1cccnc1	-15	-4	104	107
C=C(C)c1cccc(C(C)(C)NC(=O)NCc2ccc(OC)cc2)c1	-2	17	102	99
O=C(CSc1ncnc2c1nnn2Cc1ccccc1)Nc1ccccc1	-24	4	102	101
CCCc1nc2nc(C)c(N)c(=O)n2[nH]1	-12	9	103	103
CCCNC(=O)c1c(O)c2ccccc2n(C)c1=O	21	16	102	103
OC(COCc1ccccc1)CN1CCCC1 (stereo not given)	-8	-9	103	99

This part in full, from the start:
SMILES	MenB inh	MbtI inh	Polio RdRp inh	Polio RdRp inh intensity
O=c1cc(N2CCCCC2)[nH]c(=O)n1C1CCCCC1	17	6	103	98
O=C(COc1ccc(Cl)cc1)N1CCN=C1SCc1cccnc1	-15	-4	104	107
C=C(C)c1cccc(C(C)(C)NC(=O)NCc2ccc(OC)cc2)c1	-2	17	102	99
O=C(CSc1ncnc2c1nnn2Cc1ccccc1)Nc1ccccc1	-24	4	102	101
CCCc1nc2nc(C)c(N)c(=O)n2[nH]1	-12	9	103	103
CCCNC(=O)c1c(O)c2ccccc2n(C)c1=O	21	16	102	103
OC(COCc1ccccc1)CN1CCCC1 (stereo not given)	-8	-9	103	99
O=C(NCc1ccccn1)c1nnc(-c2cccnc2)o1	-21	1	106	107
COc1ccccc1/C=C(\C#N)c1ccc(C)cc1	-2	2	102	88
O=C(CCCn1c(=O)c2sccc2n(Cc2ccc(F)cc2)c1=O)NCc1ccc2c(c1)OCO2	-7	-17	103	103
Oc1cccnc1CCc1ccccc1	11	-64	100	103
Cc1cc(NC(=O)c2ccc(C#N)cc2)n(-c2ccccn2)n1	.	-3	106	110
CN(C)C(CNC1CC2CC1C1CCCC21)c1ccco1 (stereo not given)	-14	-2	98	99
Cc1cc(C)c(C)c(S(=O)(=O)Nc2ccccc2C(=O)NCC(=O)NCc2ccco2)c1C	-37	-34	103	98
O=C(CCn1cnc2onc(-c3ccc(F)cc3)c2c1=O)NCc1cccc(Cl)c1	5	29	101	102
CC(C)(C)C1CCC(OC(=O)c2ccco2)CC1 (stereo not given)	.	-3	101	106
O=C(NCc1n[nH]c(=O)c2ccccc12)NC1CCCCC1	-14	-10	108	110
CCCCNC(=O)c1sc2nc3n(c(=O)c2c1C)CCC3	-4	-22	101	101
Cc1nnc(SCC(=O)N/N=C/c2cccc3cccnc23)n1-c1ccccc1	-14	-9	101	103
CC[C@H](CO)NCCN[C@H](CC)CO	4	-11	98	103
COC(=O)C1CSCN1 (stereo not given)	-66	-2	103	100
CCC(CC)(C(=O)O)C(=O)O	3	8	98	105
Oc1ccc2ccccc2c1C=NCc1cn2ccsc2n1	.	0	102	95
CCN(CC)S(=O)(=O)c1ccc(N2CCN(c3ccccc3F)CC2)nc1	11	16	100	106
O=C(COc1ccccc1)Nc1nonc1NC(=O)COc1ccccc1	-3	-5	103	105

Carrying on.
SMILES	MenB inh	MbtI inh	Polio RdRp inh	Polio RdRp inh intensity
Cc1cn2c(nc1=O)OC1CC2OC1CO (stereo not given)	9	2	103	100
O=C(COc1ccc2c(C(F)(F)F)cc(=O)oc2c1)N1CCc2ccccc21	.	3	103	104
O=C1CC(=O)N(Cc2ccc(F)cc2)C(=O)N1	-28	-3	98	100
O=C(Nc1cccnc1)C1CC(c2ccc(F)cc2)=NO1 (stereo not given)	5	3	102	105
COc1ccc(S(=O)(=O)NCc2cccs2)cc1C(C)(C)C	-10	-2	100	101
COc1cccc(CN2CCC(C(=O)N3CCCC(C)C3)CC2)c1 (stereo not given)	-52	4	102	101
O=S(=O)(c1ccc(Cl)cc1)N1CCN(Cn2nnc(-c3ccccc3)n2)CC1	-23	4	111	124
Cc1ccc(N(C)C(=O)C2CCCN2S(=O)(=O)c2cccc3nsnc23)cc1 (stereo not given)	-14	-1	105	99
CC1CN(c2nnc(-c3ccccc3)c3ccccc23)CC(C)O1 (stereo not given)	.	0	103	99
CCc1ccc(NC(=O)N2CCC(c3ccccc3)C2)cc1 (stereo not given)	-13	-5	104	105
CCOc1ccc2c(c1)C(C)=CC(C)(C)N2C(=O)Cn1cnc2c1c(=O)n(C)c(=O)n2C	-17	-8	108	110
CC1CN(C(=O)COc2ccccc2)CC(C)O1 (stereo not given)	-8	8	106	106
COc1cccc(NCc2nnc(SCC(=O)c3ccc(Cl)s3)n2C2CCCCC2)c1	-4	9	106	105
CC12CCC3C(CC=C4CC(O)CCC43C)C1C/C(=C\c1ccc(C(F)(F)F)cc1)C2=O (stereo not given)	-5	.	107	112
Cc1cc(C(=O)CN(C)c2ccccc2)c(C)n1-c1c(C)n(C)n(-c2ccccc2)c1=O	-27	17	103	108
CSc1nnc(-c2ccc(S(=O)(=O)n3nc(C)cc3C)s2)n1C	-14	-145	102	111
CCNc1nc(NCC)nc(OCCOC(C)=O)n1	-12	-13	104	108
C=CCNC(=O)CCn1c(=S)[nH]c2cc3c(cc2c1=O)OCO3	6	-8	104	101
N#Cc1ccc(-c2ccncc2)nc1SCC(N)=O	-3	.	106	107
COc1ccc(-c2cc(-c3ccccc3)c(C#N)c(SC3CCCCC3O)n2)cc1 (stereo not given)	-53	42	101	98
CCOC(=O)c1cnc(-c2cccc(OC)c2)[nH]c1=O	-6	3	99	101
NS(=O)(=O)c1ccc(N2C(=O)CSC2=S)cc1	-75	57*	99	109
CCOc1ccc(C(=O)NC(CC)CC)cc1OCC	1	-12	103	102
CCOC(=O)CCn1nc(-c2ccccc2)cc1N	-18	1	103	107
CC1=C(C(=O)c2ccccc2)CC(C(=O)c2ccccc2)=C(C)N1	-20	.	103	105

Next entries follow.
SMILES	MenB inh	MbtI inh	Polio RdRp inh	Polio RdRp inh intensity
Cc1cc(OC(=O)N(C)C)nc(SCc2c(F)cccc2Cl)n1	-22	10	103	102
CCCCCCCC(=O)OC[C@H](CO)OC(=O)CCCCCCC	5	-10	100&102	105&104
COc1ccc(-c2cc(C)no2)cc1S(=O)(=O)NCCN1CCN(c2ccccc2)CC1	-11	-24	99	103
COCCN(CCc1ccncc1)S(=O)(=O)c1cc2[nH]c3c(c2cc1C)C(=O)CCC3	-12	5	98	103
Cc1ccc(C(=O)NC(=O)CSc2nnc(C)s2)cc1	-12	-11	99	103
CCOc1ccc(NC(=O)C2(c3ccccc3)CCOCC2)cc1	-8	-5	103	107
N#CC(C#N)=NNc1ccc2c(c1)OCCO2	i	21	94	93
COc1ccc(N2CCc3c(C)c(C#N)c4nc5ccccc5n4c32)cc1	-6	-1	61	146
CC(C)C(C)(C#N)NC(=O)CN1CCOCC1 (stereo not given)	-21	0	106	108
S=c1n(-c2ccccc2)cnn1CN1CCN(c2ccccn2)CC1	-3	-1	102	107
Cc1[nH]n(C(N)=S)c(=O)c1C(c1cccc(Cl)c1Cl)C(C#N)C#N (stereo not given)	-50	.	101	229
O=S(=O)(NCC(c1cccs1)N1CCc2ccccc2C1)c1ccccc1 (stereo not given)	-17	0	105	97
O=C(O)C1C2C=CC(C2)C1C(=O)NCc1ccccn1 (stereo not given)	0	-11	101	100
CC1=CCC(c2cnc(-c3ccccc3)c(C)c2)NC1c1ccccc1 (stereo not given)	-24	.	109	111
S=C(c1ccc(-c2ccccc2)o1)N1CCCCC1	-29	102*	.	.
C=CCN(CC=C)C(=O)COc1ccccc1C(N)=O	-19	1	103	105
O=c1c2cnn(-c3ccc(Cl)cc3)c2ncn1Cc1ccc(Cl)cc1	-6	8	104	106
COC(=O)C1(S(=O)(=O)C2(C(=O)OC)CCCC2)CCCC1	0	23	103	101
O=c1oc2ccccc2cc1Cl	2	107	101	100
CCCCC(CC)c1nnc(N)s1 (stereo not given)	-18	-23	100	101
O=C(/C=C/c1cccs1)OCc1nc2ccccc2s1	-5	1	100	100
CC(C)CN(CC(C)C)Cn1c(=O)oc2ccccc21	6	-2	103	100
CCC(=O)N1CCc2cc(Br)cc(S(=O)(=O)Nc3noc4ccccc34)c21	-6	-22	102	102
O=C(NCC(c1ccco1)N1CCCCC1)c1ccc(S(=O)(=O)N2CCCC2)cc1 (stereo not given)	-13	11	104	110
CSc1ccc(S(=O)(=O)NC(C)C)cc1	-7	-1	98	100

Random excerpt: 6 compounds from above, in no set order.
SMILES	MenB inh	MbtI inh	Polio RdRp inh	Polio RdRp inh intensity
CC(C)CN(CC(C)C)Cn1c(=O)oc2ccccc21	6	-2	103	100
N#CC(C#N)=NNc1ccc2c(c1)OCCO2	i	21	94	93
Cc1cc(OC(=O)N(C)C)nc(SCc2c(F)cccc2Cl)n1	-22	10	103	102
COc1ccc(N2CCc3c(C)c(C#N)c4nc5ccccc5n4c32)cc1	-6	-1	61	146
O=C(O)C1C2C=CC(C2)C1C(=O)NCc1ccccn1 (stereo not given)	0	-11	101	100
COc1ccc(-c2cc(C)no2)cc1S(=O)(=O)NCCN1CCN(c2ccccc2)CC1	-11	-24	99	103

Continuation.
SMILES	MenB inh	MbtI inh	Polio RdRp inh	Polio RdRp inh intensity
CCOc1ccc(-n2nnc(C(=O)NCCN3CCOCC3)c2C)cc1	16	-5	100	104
O=C(O)c1ccccc1SCC(=O)N1CCc2ccccc21	-17	0	101	103
CS(=O)(=O)N(CCc1ccccc1)CC(=O)O	-13	-6	100	109
CC1CCc2onc(C(=O)N3CCCc4ccccc43)c2C1 (stereo not given)	-25	-7	106	100
O=C1C2C(C(=O)N1C1CCCCC1)C1C=CC2C12CC2 (stereo not given)	2	-7	102	104
COc1ccc(CNS(=O)(=O)c2ccc3c(c2)CCN3C(=O)C2CC2)cc1	-12	-1	102	96
CCC1CCC2(CC1)SCC(=O)N2c1ccccc1 (stereo not given)	-8	.	105	108
O=C(C1CC1)N1c2ccccc2CCc2ccccc21	-19	-2	100	101
O=C(NCc1ccccc1)C1CCCN(c2cnccn2)C1 (stereo not given)	3	-23	102	103
Cc1ccc(/C=C/C(=O)OCC(=O)/C=C2\N(C)c3ccccc3C2(C)C)o1	-36	-1	106	108
C=CCn1c(CNC(=O)c2ccc(OC)cc2)nnc1SCc1nc2ccccc2c(=O)[nH]1	1	-6	101	102
CC1(C)N([O-])C2=C(CCCC2)[N+]1=O	-9	-8	103	104
CCOC(=O)c1cc(-c2ccccc2)n(CC(=O)N2CCN(c3cc(Cl)ccc3C)CC2)c1C	0	1	101	100
COc1ccccc1NC(=O)C1=C(C)NC(=S)NC1C (stereo not given)	-14	49	99	103
S=c1n(CN2CCOCC2)nc(Cc2cccs2)n1C1CCCCC1	-47	8	100	101
COc1ccc(/C=C2/C(=N)N3OC(C)=CC3=NC2=O)cc1	-29	-4	96	105
NC(=O)CSc1nnc(COc2ccccc2)n1C1CCCCC1	23	-3	101	101
O=c1ccc(-c2ccc(S(=O)(=O)NCCCc3ccco3)s2)n[nH]1	-2	-30	101	102
CCOC(=O)CSc1nc(SCC(=O)OCC)c2c3c(sc2n1)CCC3	4	1	99	96
COC(=O)Nc1ccc(S(=O)(=O)C(F)F)cc1	-21	-9	101	103
Cc1c(NC(=O)COC(=O)c2ccc(S(=O)(=O)N3CCCC3)cc2)c(=O)n(-c2ccccc2)n1C	-18	-9	104	98
CCN(CC)C(=O)C1=C(C)Nc2nnnn2C1c1cccnc1 (stereo not given)	-97	-9	101	105
c1csc(-c2nnc3n2-c2ccccc2SC3)c1	-28	-13	109	116
Cc1cc2occ(CC(=O)OC(C)C(=O)NC3(C#N)CCCCC3)c2cc1C (stereo not given)	-32	-1	105	107
Cn1c(=O)c2nc3ccc(NC(=O)Nc4ccccc4)cc3nc2n(C)c1=O	-40	-8	96	104

(further entries)
SMILES	MenB inh	MbtI inh	Polio RdRp inh	Polio RdRp inh intensity
CC(=O)Nc1ccc(OCC(O)CN2CCN(C(c3ccccc3)c3ccccc3)CC2)cc1 (stereo not given)	-1	-4	100	105
O=C(CC1=NS(=O)(=O)c2ccccc2N1)NC1CCCC1	7	-2	102	103
CSCCC(=O)N1CCN(S(=O)(=O)c2ccc(C)cc2)CC1	-30	-20	105	105
COc1ccccc1C(N)=S	-101	18	102	106
Oc1oc(-c2ccccc2)nc1C1=NCCC1	0	-1	103	107
CCCN1C(=O)C(O)(C2COC(C)(C)CC2=O)c2cc(C)ccc21 (stereo not given)	-24	-23	103	104
Cc1ccc(-n2nnc(C(=O)NC(C)C)c2C)cc1	-20	-4	.	.
CCOC(=O)Cn1c(O)c(N=NC(=O)c2cccc(F)c2)c2ccccc21	3	-16	100	104
CN(C)[C@@H]1C(=O)C(C(N)=O)=C(O)[C@@]2(O)C(=O)C3=C(O)c4c(O)ccc(Cl)c4[C@@](C)(O)[C@H]3C[C@@H]12	0&-5	i	100&102	102&103
O=C(CN1CCc2ccccc21)Nc1nnc(-c2cccs2)s1	-9	-35	99	97
CCC(C)NC(=O)CN1CCN(Cc2ccc(Cl)cc2)C1=O (stereo not given)	-7	-5	105	102
Cn1/c(=N/N=C(\CCC(=O)O)c2cccs2)sc2ccccc21	-49	14	106	102
Cc1c(O)ccc(-c2[nH]ncc2-c2nc3ccccc3s2)c1O	7	-33	100	104
CC(c1ccccc1)n1cnc2c(cnn2-c2ccc(F)cc2)c1=O (stereo not given)	-29	14	100	100
CNC(=O)NC(=O)C(C)N1CCN(C/C=C/c2ccccc2)CC1 (stereo not given)	-18	-10	115	124
